KCNQ2 inh – KCNQ2 potassium channel inhibitors, primary screen, cell-based, CHO-K1, FluxOR thallium flux, B-score (AID 2156); O88943; 20 min; hits give low values; only compounds with negative scores are shown here; some inactives read as strong as hits; B-score at 10 µM; 310,000 tested, 1.1% active;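 active = fluorescence ratio B-score at most minus 3 library SDs, with starting brightness B-score within 2 library SDs, cut at about -5.5 in these data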
Target sequence (O88943 whole entry, looked up): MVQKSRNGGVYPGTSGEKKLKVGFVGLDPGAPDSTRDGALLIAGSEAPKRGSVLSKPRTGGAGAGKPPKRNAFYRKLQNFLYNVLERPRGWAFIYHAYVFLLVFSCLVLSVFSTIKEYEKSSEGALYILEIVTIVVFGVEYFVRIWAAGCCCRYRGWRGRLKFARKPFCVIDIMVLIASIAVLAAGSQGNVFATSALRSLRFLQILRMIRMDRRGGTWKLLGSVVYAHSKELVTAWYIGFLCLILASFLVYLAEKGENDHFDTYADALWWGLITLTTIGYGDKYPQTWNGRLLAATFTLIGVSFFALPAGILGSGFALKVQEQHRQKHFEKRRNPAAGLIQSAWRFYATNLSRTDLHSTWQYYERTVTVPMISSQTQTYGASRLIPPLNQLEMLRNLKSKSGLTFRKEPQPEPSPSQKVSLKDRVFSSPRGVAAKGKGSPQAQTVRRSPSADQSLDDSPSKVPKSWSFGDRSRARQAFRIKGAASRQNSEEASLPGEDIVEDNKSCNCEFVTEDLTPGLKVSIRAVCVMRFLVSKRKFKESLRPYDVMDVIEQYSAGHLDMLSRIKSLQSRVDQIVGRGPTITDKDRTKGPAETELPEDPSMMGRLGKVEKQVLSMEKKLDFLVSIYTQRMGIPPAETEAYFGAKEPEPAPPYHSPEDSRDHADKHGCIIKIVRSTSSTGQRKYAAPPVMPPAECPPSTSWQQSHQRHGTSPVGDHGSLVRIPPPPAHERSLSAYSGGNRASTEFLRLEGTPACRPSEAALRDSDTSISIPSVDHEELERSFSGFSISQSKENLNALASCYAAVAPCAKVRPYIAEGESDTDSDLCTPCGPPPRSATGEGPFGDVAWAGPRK
KCNQ2 inh baseline – also measured in KCNQ2 inh; calls as there; B-score; measured here: initial fluorescence intensity artifact check;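 brightness before thallium and not channel activity; 0 = typical well and far values either way flag optical interference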
Numbers without * were called inactive; i = inactive.

A first look (2 entries):
Each structure is followed by: KCNQ2 inh | KCNQ2 inh baseline
CCCCCCOC(=O)/C=C/c1c(C)[nH]c(=O)[nH]c1=O
  i | 1.83
O=C(NNC(=O)c1nn(-c2ccc(F)cc2)ccc1=O)Nc1cccc(Cl)c1
  i | 1.11

All compounds of this part, previewed entries included:
Each structure is followed by: KCNQ2 inh | KCNQ2 inh baseline
CCCCCCOC(=O)/C=C/c1c(C)[nH]c(=O)[nH]c1=O
  i | 1.83
O=C(NNC(=O)c1nn(-c2ccc(F)cc2)ccc1=O)Nc1cccc(Cl)c1
  i | 1.11
Cc1ccc(S(=O)(=O)NC(=O)Nc2cccc(C)n2)cc1
  i | 1.09
CCC(=O)N1CCN(c2ccc(NC(=O)c3ccc(N4CCCC4)c([N+](=O)[O-])c3)cc2)CC1
  i | -0.51
Clc1ccc(-c2nnc(N3CCCC3)nn2)cc1
  i | -0.6
CCOc1ccccc1C(=O)N/N=C/c1coc2ccc(C)cc2c1=O
  i | -0.24
COc1ccc(N(C(=O)CNC(=O)c2ccco2)C(C(=O)NCC2CCCO2)c2ccccc2)cc1 (stereo not drawn)
  i | 0.03
C=CCC(Nc1ccccc1)c1cccc(OC)c1OC (stereo not drawn)
  i | -1.33
COc1cc(C(=O)NCCSc2ccc(Cl)cc2)cc(OC)c1OC
  i | -0.2
Cc1c(OCC(=O)C(C)(C)C)ccc2c(-c3ccccc3)cc(=O)oc12
  i | -2.23
Cc1ccc(-c2cc3nc(-c4ccc(Br)cc4)cc(N)n3n2)cc1
  i | 2.29
Clc1ccc(Cc2nc(-c3ccncc3)no2)cc1
  i | -0.28
O=C(NCc1cccc(Cl)c1)C1CCCN(c2ncnc3c2nc2n3CCCCC2)C1 (stereo not drawn)
  i | -1.67
Cn1ccnc1SCC(=O)n1c2c(c3ccccc31)CCCC2
  i | -0.06
Cc1ccc(NC(=S)/C(=C(\[O-])c2ccc(Cl)s2)[n+]2cccc(CO)c2)cc1C
  -7.76* | -1.96*
COc1ccc(OC)c(NC(=S)NCc2ccccc2OC)c1
  i | -1.4
Cc1c(C(=O)N2CCN(c3ccccc3)CC2)sc2ncnc(N3CCN(c4ccccn4)CC3)c12
  i | 0.91
Cc1c(C)c(C)c(C(=O)c2ccc(NC(=O)c3ccccc3C(=O)O)cc2)c(C)c1C
  i | -2.01
COC(=O)C(C)NC(=O)COc1ccc2ccccc2c1 (stereo not drawn)
  i | 1.61
COCc1cc(CN2CCCC(CNC(=O)c3ccc(F)cc3)C2)ccc1OC (stereo not drawn)
  i | -1.21
COc1ccc(CNC(=O)Cc2c[nH]c3ccccc23)cc1OC
  i | 1.49
CCc1ccc2[nH]c(=O)c(Cc3ccccc3)c(O)c2c1
  i | -0.52
Cc1cc(NC(=O)CSCC(=O)N(c2cccc(Cl)c2)C(C(=O)NC2CCCCC2)c2ccc(O)c(O)c2)no1 (stereo not drawn)
  i | -0.18
O=C(NCCCNC(=O)c1cnccn1)c1ccc(Br)cc1
  i | -1.15
Cc1c(C(=O)OCC(=O)Nc2cccc(S(N)(=O)=O)c2)oc2c1ccc1ccccc12
  i | 0.06
O=C(CSc1nncs1)Nc1nccs1
  i | -1.08
COc1ccc(C2C(C(=O)N3CC(C)CC(C)C3)c3ccccc3C(=O)N2C)cc1 (stereo not drawn)
  i | -0.04
CCC1CCCCN1CCCNC(=O)C1CCN(S(=O)(=O)N2CCCCC2)CC1 (stereo not drawn)
  i | 0.55
Cc1cc2ncn(-c3ncnc4sc5c(c34)CCC(C)C5)c2cc1C (stereo not drawn)
  -5.88* | 0.05*
CCOc1ccc(C2c3[nH]c4ccccc4c3CCN2Cc2cn(CC)nc2C)cc1 (stereo not drawn)
  i | -1.16
CCOC(=O)c1c(S(=O)(=O)NCCc2cccs2)c(C)n(C)c1C
  i | 0.77
CC1=C(/C=C/C(C)=C/C=C/C(C)=C/CO)C(C)(C)CCC1
  i | -0.94
CC(C)C1Nc2ccc(C(=O)NCCCN3CCOCC3)cc2NC1=O (stereo not drawn)
  i | -0.02
COCCNC(=S)NN(c1ccccc1)c1ccccc1
  i | -0.24
NC(=O)c1cc[n+](Cc2ccc([N+](=O)[O-])cc2)cc1
  i | 0.04
O=C(NCC1CCCO1)C1CCCN(S(=O)(=O)c2ccc(Br)cc2)C1 (stereo not drawn)
  i | -0.28
C/C(=N\NC(=O)c1ccccn1)c1ccc(C(=O)O)s1
  i | -0.93
CCOC(=O)N1CCC(N2Cc3cccc(C(=O)O)c3C2=O)CC1
  i | -0.06
CCCNC(=O)CSc1nnc(-c2ccc(F)cc2)o1
  i | -0.68
COc1ccc(OCC(=O)Nc2ccc(Cl)cc2)cc1
  i | -2
C=CCC1(N(C(C)=O)c2ccccc2C)CCCCC1
  i | 0.65
CCCCCC(=O)N(O)C1CC(=O)N(c2ccccc2)C1=O (stereo not drawn)
  i | 0.44
CCOC(=O)Cn1c(=O)oc2cc(S(=O)(=O)NC3CCCCC3)ccc21
  i | 0.3
CCc1nnc(NC(=O)CSc2ncnc3c2cnn3-c2ccc(OC)cc2)s1
  i | -1.45
CSc1nc2ccc(NC(=O)C3CCCO3)cc2s1 (stereo not drawn)
  i | -0.53
CCCC1NC(C(=O)O)Cc2c1[nH]c1ccccc21 (stereo not drawn)
  i | -0.01
COc1cc(NC(=O)CCN2CCN(c3ccccc3F)CC2)cc(OC)c1
  i | -0.04
CNC(=O)CN(c1cc(OCCOC)c(Cl)cc1Cl)S(=O)(=O)c1ccc(OC)cc1
  i | -0.01
CC(=O)Oc1ccc2c(C)cc(=O)oc2c1C(=O)c1ccccc1
  i | -0.16
Cc1ccc(CNn2cnnc2SCC(=O)NC(C)(C)C)cc1
  i | -1.22
Cn1c(=O)n(C)c2cc(C(N)=O)ccc21
  i | 0.47
CC(C)N1C(=O)CCC1C(=O)NCCc1ccccc1 (stereo not drawn)
  i | -0.12
Cc1nc2ccccc2nc1CSc1nnc(N)s1
  i | -0.6
COC(=O)c1ccc(CSc2cc(C)c3ccccc3n2)o1
  i | -2.77
CCOc1ccc(CCNC(=O)c2cc3sccc3n2C)cc1OCC
  i | 0.91
Clc1ccc(Sc2cnc3ccccc3n2)cc1
  i | -0.04
COc1ccc(NC(=O)c2cc3ccccc3o2)cc1OC
  i | 1.14
CC(Oc1coc(CN2CCN(C(=O)c3ccco3)CC2)cc1=O)c1ccccc1 (stereo not drawn)
  i | 0.63
O=C(CCC(=O)N(c1ccccc1)C(C(=O)NC1CCCC1)c1ccncc1)Nc1cccnc1 (stereo not drawn)
  i | 0.07
CC(C)COC(=O)c1ccccc1N1C(=O)C2C3CCC(C3)C2C1=O (stereo not drawn)
  i | -1.78

A run of entries taken from the entries so far, as a working copy:
Each structure is followed by: KCNQ2 inh | KCNQ2 inh baseline
CC(Oc1coc(CN2CCN(C(=O)c3ccco3)CC2)cc1=O)c1ccccc1 (stereo not drawn)
  i | 0.63
O=C(CCC(=O)N(c1ccccc1)C(C(=O)NC1CCCC1)c1ccncc1)Nc1cccnc1 (stereo not drawn)
  i | 0.07
CC(C)COC(=O)c1ccccc1N1C(=O)C2C3CCC(C3)C2C1=O (stereo not drawn)
  i | -1.78

(listing goes on)
Each structure is followed by: KCNQ2 inh | KCNQ2 inh baseline
COc1ccc(NCC(=O)N/N=C/c2cc([N+](=O)[O-])ccc2N2CCCC2)cc1
  i | -0.03
COc1ccc(-c2nc3c(c(=O)n(C)c(=O)n3C)n2CC2CC(c3ccccc3)=NO2)cc1OC (stereo not drawn)
  i | 1.28
O=C(NNC(=O)c1c(O)c2ccccc2[nH]c1=O)c1ccccc1Br
  i | -0.07
Cc1ccccc1-n1ncc2c1CC(C)(C)CC2NC(=O)CCn1cncn1 (stereo not drawn)
  i | 0.44
CN(Cc1ccccc1)S(=O)(=O)c1ccc(Cl)c(C(=O)NCc2cccnc2)c1
  i | 0.5
O=C(NCc1ccco1)C1CCCN(S(=O)(=O)c2ccc(Br)cc2)C1 (stereo not drawn)
  i | -1.23
CC(=O)NC(Cc1ccccc1)C(=O)OCC(=O)c1ccc(Br)cc1 (stereo not drawn)
  i | 1.79
COc1ccc(C(=O)N2CCN(Cc3ccccc3C)CC2)cc1OC
  i | 0.51
c1ccc(OCCOc2ccccc2-c2nnco2)cc1
  i | 0.2
CC(c1ccccc1)n1c(SCC(=O)N2CC(=O)Nc3ccccc32)nc2ccccc2c1=O (stereo not drawn)
  i | -0.77
CCOC(=O)N/N=C\c1ccc([N+](=O)[O-])o1
  i | -0.06
COn1c(SC(C)C)nc2ccccc2c1=O
  i | 0.94
CCOc1cc(C2c3c(-c4ccccc4)n[nH]c3C(=O)N2c2ccc(C(=O)O)cc2)ccc1O (stereo not drawn)
  i | 0.05
CC(C)Sc1nc(C(F)(F)F)cc(=O)n1-c1ccccc1
  i | -1.38
CCCn1ncc(CN2CCC(C(=O)Nc3cccc(-c4cccc(F)c4)c3)CC2)c1C
  i | -0.3
CCCNC1=C(N(C(C)=O)c2cccc(F)c2)C(=O)c2ccccc2C1=O
  i | 1.27
O=C(O)CN(Cc1ccco1)S(=O)(=O)c1ccc(F)cc1
  i | 0.49
CCC(C)c1ccc(OCc2ccc(C(=O)O)o2)cc1 (stereo not drawn)
  i | 0.1
Cn1c(=O)c2c(nc(SCCN3CCCCC3)n2Cc2ccc(Cl)cc2)n(C)c1=O
  i | 2.18
CSc1ncccc1C(=O)N1CCN(S(=O)(=O)c2ccccc2)CC1
  i | -2.01
CC1Cc2ccccc2N1C(=O)CN1CCC(n2nnc3cc(C(F)(F)F)ccc32)CC1 (stereo not drawn)
  i | -0.52
CCOC(=O)c1c(NC(=O)CCNCc2ccco2)sc2c1CCC2
  i | -1.05
O=C(CCCSc1ccc(Cl)cc1)Nc1ccccc1O
  i | 0.2
S=C(c1ccc[nH]1)N1CCOCC1
  i | -1.34
CNC(=O)c1c(NC(=O)c2ccc(S(=O)(=O)N3CCCc4ccccc43)cc2)sc2c1CCN(C)C2
  i | 2.46
CC(C)(C)NC(=O)COC(=O)c1ccc(Cl)c(S(N)(=O)=O)c1
  i | -1
CCCCn1c(=NC(=O)c2cccnc2)c(C#N)cc2c(=O)n3cccc(C)c3nc21
  i | 0.29
Cc1ccc(N(CC(=O)Nc2ccccc2-c2ccccc2)S(=O)(=O)c2ccccc2)cc1
  -6.21* | -0.04*
CC(C)CCNC(=O)c1sc2ccc(S(=O)(=O)N3CCCCC3)cc2c1N
  i | -0.35
NC(=O)[C@H]1CC2(CC(c3cccc(NC(=O)CC(c4ccccc4)c4ccccc4)c3)=NO2)CN1C(=O)C(c1ccccc1)c1ccccc1 (stereo partly drawn)
  i | -2.23
O=C(Nc1ccccc1)c1ccc(COc2ccccc2)cc1
  i | 0.8
COCCn1cc(-c2csc(N)n2)c2ccccc21
  i | 0.23
O=C(OCc1csc(Nc2ccccc2)n1)c1ccc(Cl)cc1
  i | -2.02
COc1ccc(OCC(=O)Nc2ccc(S(=O)(=O)Nc3nc(C)cc(C)n3)cc2)cc1
  i | 0.04
Cc1ccc(C(=O)Nc2cc(Cl)ccc2N2CCCCC2)s1
  i | -0.19
CN(CCCC(=O)Nc1ccccc1F)S(=O)(=O)c1ccc(F)cc1
  i | 0.27
CCOc1ccccc1OCCn1nc2ccccc2n1
  i | 0.26
O=C(O)C1CCCCC1C(=O)NCc1ccccn1 (stereo not drawn)
  i | -0.5
CCOCc1nnc(NC(=O)C2CC(=O)N(C3CCCC3)C2)s1 (stereo not drawn)
  i | -0.5
O=S(=O)(O)c1nc2ccccc2[nH]1
  i | 1.16
CCCCNC(=O)N(c1c(N)n(Cc2ccccc2)c(=O)[nH]c1=O)C1CCCC1
  i | -0.41
COc1cc(C)ccc1N(CCCN1C(=O)c2cccc3cccc(c23)C1=O)C(=O)c1cccs1
  i | -0.09
Cc1ccc(SCCC(=O)NC(C)C)cc1
  i | -1.91
O=C(CSc1nc2[nH]ncc2c(=O)[nH]1)Nc1ccccc1F
  i | 0.37
COc1ccccc1Nc1nc(NCc2ccco2)nc(N)c1[N+](=O)[O-]
  i | -1.31
CCOC(=O)C1CCN(C=Nc2cc(C)on2)CC1
  i | -1.18
O=C(Oc1c(-c2ccccc2)c(=O)n2c3c(cccc13)CC2)c1ccccc1
  i | 0.26
CCCCC#Cc1cncc(C(=O)NN)c1
  i | 1.16
Cc1cccc(N2CCN(C(=O)Cn3cccc3)CC2)c1C
  i | -0.28
O=[N+]([O-])c1ccc(-n2cnc3ccccc32)c([N+](=O)[O-])c1
  i | 0.63
C/C(=N\NC(=O)c1c(Cl)c(C)nn1C)c1cccc(NC(=O)C2CCCC2)c1
  i | 0.7
CCC1CCCCN1C(=O)CSc1nc2c(c(=O)n1C)SC(C)C2 (stereo not drawn)
  i | -0.34
CCCCn1cc(S(=O)(=O)c2ccccc2)c(=O)c2cc(C)ccc21
  i | -0.02
O=S(=O)(NCC(c1cccnc1)N1CCN(c2ccccc2)CC1)c1cccs1 (stereo not drawn)
  i | 2.71
CC1CC(OCC(O)CN2CCCCC2C)CC(C)(C)C1 (stereo not drawn)
  i | -0.79
Cc1cc(NC(=O)c2ccccc2)no1
  i | -0.66
COc1ccc(N(CC(=O)NCC2CCCO2)S(=O)(=O)c2ccccc2)cc1OC (stereo not drawn)
  i | 0.33
Oc1ccccc1-n1c(-c2ccccc2)ccc1-c1ccccc1
  i | 0.11
O=C(CCc1ccc(O)c(O)c1)NNC(=S)Nc1ccc(Br)cc1Cl
  i | -0.69
C#CCNC(=O)C1=C[C@H](c2cn(C(C)=O)c3ccccc23)C[C@H](OCc2ccc(CO)cc2)O1
  i | -0.73
CCC(C)N=C1Sc2nc3ccc(C)cc3cc2CN1CCOC (stereo not drawn)
  i | -0.71

High-throughput results deposited in PubChem by Johns Hopkins Ion Channel Center.

Only part of the results is shown, so the mix of outcomes need not match the whole.
